# Bioassay records: PubChem BioAssay, Southern Research Institute
# Mtb H37Rv – Mycobacterium tuberculosis H37Rv growth inhibition, cell based, confirmatory dose response (AID 1949) | most inactive calls were filed without a number and no value below 0 was filed | inhibition, % at 10 µg/mL; hits with a dose series show IC50 in µg/mL | 1.6% of 100,000 active;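 active means confirmed in a dose series; inconclusive means about 50% or more but not retested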;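 further: bacteria grown 7 days with compound before Alamar blue readout; 0% = untreated bacteria and 100% = reference antibiotic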
# * = called active by the depositor; i = inactive; u = inconclusive. Some of the compounds tested; the hit share may differ from the screen's.
# Sample of the layout, 2 compounds:
Compound	Mtb H37Rv
COC(=O)C1=C(C)NC(=S)NC1c1ccc(OC(=O)c2ccco2)cc1 (stereo not given)	0%
Cc1ccc(S(=O)(=O)N2CCC(C(=O)N3CCN(Cc4ccc5c(c4)OCO5)CC3)CC2)cc1	i

# The whole of this part (from the top)
Compound	Mtb H37Rv
COC(=O)C1=C(C)NC(=S)NC1c1ccc(OC(=O)c2ccco2)cc1 (stereo not given)	0%
Cc1ccc(S(=O)(=O)N2CCC(C(=O)N3CCN(Cc4ccc5c(c4)OCO5)CC3)CC2)cc1	i
O=C(NCc1ccc2c(c1)OCO2)c1sc2cc(Cl)ccc2c1Cl	i
CCc1cccc(NC(=O)CCC2CCCCC2)c1	i
Cc1c(Cl)cccc1NC(=O)CCOc1ccccc1	i
CCc1nnc(NC(=O)C(C)Oc2cccc(Cl)c2)s1 (stereo not given)	i
Cc1nn(C)c(C)c1NC(=O)c1cc(-c2cccnc2)nc2ccc(Cl)cc12	i
C=CCOc1ccc2c(C)c(Cl)c(=O)oc2c1C	2%
CCNc1cc(N2CCN(S(=O)(=O)Cc3ccccc3)CC2)ccc1[N+](=O)[O-]	i
CSc1ccccc1C(=O)NCCSCc1cccc(Cl)c1	i
Cc1ccc(NC(=O)Cn2cnc3c(=O)n(C)c(=O)n(C)c32)c(O)c1	i
O=C(CC1(O)C(=O)Nc2ccc(Cl)cc21)c1cc2ccccc2oc1=O (stereo not given)	i
Cc1cc(Cl)ccc1OCCCC(=O)Nc1c(Cl)cccc1Cl	47%
CCn1cc(Br)c(C(=O)Nc2ccc(OC)cc2)n1	i
CCc1ccc(N(CC(=O)Nc2ccccc2Br)S(=O)(=O)c2ccccc2)cc1	1%
CCOC(=O)c1cccc(NC(=O)c2ccc(OC)c([N+](=O)[O-])c2)c1	i
COc1ccc(N2C(=O)CC(Sc3nnnn3-c3ccc(F)cc3)C2=O)cc1 (stereo not given)	i
CCCCn1c(-c2cccc(C)c2)n[nH]c1=S	i
COc1ccc(NC(=O)c2ccc(NC3CCCCC3)c([N+](=O)[O-])c2)cc1	1%
Cc1ccc2nc(Nc3nc(C)c(CCC(C)C)c(=O)[nH]3)nc(C)c2c1	0%
CCCOc1ccc(C(=O)Nc2cccc3ccccc23)cc1	i
CC1CCCCN1S(=O)(=O)c1ccc(C(=O)Nc2ccccc2F)cc1 (stereo not given)	i
COc1cc(NC(=S)NCc2ccc(F)cc2)c(OC)cc1Cl	i
Cc1nnc(SCc2ccc(Cl)cc2Cl)[nH]c1=O	i
O=S(=O)(NCc1cccs1)c1cc(Cl)ccc1Cl	5%
CC(=O)c1ccc2c3c(cccc13)C(=O)N(c1ccc(O)cc1C)C2=O	i
CCNC(=S)NCCc1ccncc1	i
CCN(CC)C(=O)CC(c1ccc(C)cc1)c1ccc(OC(C)C)cc1 (stereo not given)	i
COc1ccc(-c2cc(=O)oc3cc(OCC(N)=O)ccc23)cc1	i
O=C(CCN1CCC(O)(c2ccc(F)cc2)C1)c1ccc2c(c1)OCCO2 (stereo not given)	u
CCOc1ccc(C(=O)NC(=S)Nc2ccc(N3CCCCC3)cc2)cc1Br	i
CCCn1c(-c2ccc(OC)cc2)nc2ccccc21	19%
CC(C)c1ccc(OCC(=O)Nc2cccc(C(F)(F)F)c2)cc1	28%
CC(C)CC(=O)Nc1ccc(NC(=O)CC(C)C)cc1	i
O=C(c1ccncc1)N1CCN(C(=O)c2ccc(F)cc2)CC1	i
CCCC(=O)Nc1ccc(C(=O)Nc2ccccc2C(C)CC)cc1 (stereo not given)	4%
Cn1c(=O)c2c(nc(SCCCC#N)n2Cc2c(F)cccc2Cl)n(C)c1=O	i
Cc1ccnc(NC(=O)C23CC4CC(CC(C4)C2)C3)c1	i
Cc1ccc(N(CC(=O)Nc2cccnc2)S(=O)(=O)c2ccc(Cl)cc2)cc1C	2%
Cc1cc(=O)[nH]c(SCCOc2ccccc2CO)n1	i
CC(=O)c1ccc(NC(=S)Nc2c(C)nn(Cc3cccc4ccccc34)c2C)cc1	i
CCOC(=O)c1cnc2ccccc2c1Nc1ccc2c(c1)OCCO2	44%
COC(=O)c1cccc(NC(N)=S)c1	i
COc1cccc(N2CC(C(=O)Nc3cccc4ccccc34)CC2=O)c1 (stereo not given)	i
CCOC(=O)N1CCc2c(sc(NC(=O)c3ccc([N+](=O)[O-])o3)c2C(=O)Nc2ccc(OCC)cc2)C1	5.6µg/mL*
CCOc1cc(CNCCO)c(Br)cc1OC	i
O=[N+]([O-])c1cccc(-c2nc(=S)c3c(n2CCCO)CCCC3)c1	5%
O=C(Nc1ccc2oc(-c3ccc(F)cc3Cl)nc2c1)c1ccc2c(c1)OCCO2	4%
NC(=O)c1ccccc1NS(=O)(=O)c1ccc(Br)cc1	i
O=C(c1ccccc1)N1CCN(c2ccc([N+](=O)[O-])c(N3CCOCC3)c2)CC1	i
Nc1nonc1-c1nc2ccccc2n1Cc1cccc(Cl)c1	i
COc1ccc(S(=O)(=O)NCC2CCCO2)c(Cl)c1Cl (stereo not given)	i
CCOC(=O)CSc1nnnn1-c1cccc2ccccc12	i
O=C1CC(c2ccc(F)cc2)Cc2nc(N3CCOCC3)ncc21 (stereo not given)	2%
Cn1c(SCC(=O)NC2CCCCC2)nnc1-c1ccccc1Cl	i
CCOc1ccccc1NS(=O)(=O)c1cc(C)c(C)cc1C	i

# Further entries follow:
Compound	Mtb H37Rv
OCCNc1nc2ccccc2n1-c1ccccc1	1%
C/C=C/c1ccc(OCCCCSc2ncccn2)c(OC)c1	i
CCCc1ccc(OCCNC(=O)c2cccc3ccccc23)cc1	1%
CCN(CC)c1ccc(CNCc2cccs2)cc1	i
CCOC(=O)c1c(NC(=O)c2ccc(Br)o2)sc(C(=O)N(CC)CC)c1C	i
CCn1c(SCC(=O)Nc2cccc(C(F)(F)F)c2)nnc1C(C)Oc1ccccc1 (stereo not given)	8%
Cc1nc2nc(C(F)(F)F)[nH]n2c(=O)c1Cc1ccccc1	i
Cc1ccc(N2C(=O)c3cccc4c(N)ccc(c34)C2=O)c2cccnc12	i
Fc1ccc(C(=S)N2CCN(Cc3ccccc3)CC2)cc1	i
CC(C)C(=O)Nc1cccc(C(=O)NCc2ccc3c(c2)OCO3)c1	1%
COc1ccc(S(=O)(=O)N/N=C/c2c(C)[nH]c3ccccc23)cc1	i
Cc1ccc(C)c(NC(=O)CSc2ccc(Br)cc2)c1	i
CC(=O)c1cccc(NC(=O)Nc2cccc(S(=O)(=O)N3CCOCC3)c2)c1	i
COc1ccccc1OCc1nc2ccccc2n1Cc1ccccc1	i
CC(C)c1ccc(NC(=O)CCC2CCCCC2)cc1	i
CCCn1c(-c2ccc(OC)cc2)nc2c(=O)n(C)c(=O)[nH]c21	i
O=C(NCC12CC3CC(CC(C3)C1)C2)c1nn2cccnc2c1Cl	i
Cn1c(SC/C=C/c2ccccc2)nnc1-c1ccncc1	0%
O=C(Nc1ccc(OCC(F)(F)C(F)F)cc1)c1ccncc1	i
O=C(NCC1CCCO1)C(=O)NC1CCCC1 (stereo not given)	i
COc1ccc(CN2C(=O)c3oc4cc(C)c(C)cc4c(=O)c3C2c2ccc([N+](=O)[O-])cc2)cc1 (stereo not given)	i
Cc1nc(NC(=O)c2oc3ccccc3c2C)sc1C(=O)N(C)C	i
CC1(C(=O)Nc2ccncc2)CC1(Cl)Cl (stereo not given)	i
Cc1cccc(NC(=O)CN(c2ccc(F)cc2)S(=O)(=O)c2ccc3c(c2)OCCO3)c1C	i

# An excerpt of these results, field by field:
> O=C(NCC12CC3CC(CC(C3)C1)C2)c1nn2cccnc2c1Cl
  Mtb H37Rv: i

> Cn1c(SC/C=C/c2ccccc2)nnc1-c1ccncc1
  Mtb H37Rv: 0%

# More records:
Compound	Mtb H37Rv
COc1ccc(S(=O)(=O)N(CC(=O)Nc2cccc(Br)c2)Cc2ccccc2)cc1	i
Cc1cc(C)cc(C(=O)Nc2ccc(N3CCN(C(=O)c4cccs4)CC3)c(Cl)c2)c1	16µg/mL*
Cc1c(NC(=O)CSc2nc3ccccc3[nH]2)c(=O)n(-c2ccccc2)n1C	i
O=C(Nc1ccc(Cl)cc1C(F)(F)F)c1ccc(Br)s1	i
CSc1cccc(NC(=O)c2ccc(N(Cc3ccccc3Cl)S(C)(=O)=O)cc2)c1	i
COc1ccc(-n2c(C)nnc2SCC(=O)Nc2ccc(C)cc2Br)cc1	i
CC(C)CNS(=O)(=O)c1ccc(OCC(=O)N2CCc3ccccc3C2)c(Cl)c1	2%
COCC(O)CSc1nc(C)[nH]c1[N+](=O)[O-] (stereo not given)	i
Cc1ccc(OCC(O)CN2CCN(c3ccccc3)CC2)cc1C (stereo not given)	26%
O=C(CN1C(=O)c2cccc3cccc1c23)NCCc1ccccc1	i
Cc1ccc(NC(=O)CSCc2ccc(Cl)cc2Cl)cc1C	i
O=C(CSc1ncc(-c2ccccc2)nn1)Nc1nc2ccccc2s1	i
CCOC(=O)c1[nH]c(=O)c2ccccc2c1O	7%
Cc1ccc(CSc2nnc(CC(=O)Nc3ccc(C)cc3)n2C)cc1	2%
Cn1nnc2cc(C(=O)Nc3ccc(I)cc3)ccc21	i
CCOC(=O)c1ccc(NC(=O)CCSc2nc3sc4c(c3c(=O)[nH]2)CCCC4)cc1	i
CCOc1cc(-c2noc(CCC(=O)NCC3CCCO3)n2)cc(Br)c1OC (stereo not given)	i
COc1ccc(C(=O)NC(=S)N2CCCCCC2)cc1I	u
Cc1ccc(S(=O)(=O)N(CC(=O)Nc2cccc(F)c2)c2ccccc2F)cc1	i
O=c1[nH]cnc2sc3c(c12)CCCCCCCCCC3	i
C=CCn1c(SCC(=O)c2ccc(-c3ccccc3)cc2)nnc1-c1ccncc1	i
Cc1cc(OCC(=O)Nc2ccccc2Cl)c2c3c(c(=O)oc2c1)CCC3	i
O=C(Cc1ccc(Cl)cc1)Nc1nc2c(s1)CCCC2	i
Cc1ccc2nc(N/C(N)=N/C(=S)Nc3ccc(C)c(Cl)c3)nc(C)c2c1	14%
COc1ccc(-c2cc(=O)oc3cc(OCC(N)=O)c(Cl)cc23)cc1	i
O=C(Nc1ccc(Cl)cc1)C1CCCCC1	5%
CCc1ccc(NC(=O)CSC)cc1	i
O=C(Nc1ccccc1N1CCCC1)c1ccc(-c2ccccc2)cc1	i
CC1=C(C(=O)Nc2cccnc2)C(c2ccccn2)C2=C(CCCC2=O)N1 (stereo not given)	i
COc1cccc2cc(C(=O)Nc3ccc(OCc4ccccc4)cc3)c(=O)oc12	i
C=C(C)c1cccc(C(C)(C)NC(=O)Nc2cccc(C)c2C)c1	i
O=[N+]([O-])c1ccc(NS(=O)(=O)Cc2ccccc2)cc1	i
CCc1ccc(N(CC(=O)Nc2ccc(OC)c(OC)c2)S(=O)(=O)c2ccccc2)cc1	i
COc1ccc(NC(=O)C2=C(C)NC(=O)NC2c2cc(OC)ccc2OC)c(OC)c1 (stereo not given)	2%
Cc1ccc2occ(CC(=O)Nc3ccccc3C(F)(F)F)c2c1	0%
COC(=O)c1sc2cc(NC(=S)NNC(=O)c3ccc(-n4cccc4)cc3)ccc2c1Cl	i
Cc1c(NC(=O)CSCc2ccc(Br)cc2)c(=O)n(-c2ccccc2)n1C	i
CCOC(=O)c1cnc2c(CC)cccc2c1NCC(C)O (stereo not given)	0%
O=C(CC1Sc2ccccc2NC1=O)Nc1ccc(SC(F)F)cc1 (stereo not given)	i
COC(=O)c1cn(CCOc2ccccc2F)c2ccccc12	u
COc1ccc2c(c1C)CCC1=C2CCC2(C)C1=CCC2O (stereo not given)	i
NS(=O)(=O)c1ccc(NC(=O)CN2CCC(Cc3ccccc3)CC2)cc1	1%
CC(=O)Oc1cccc(C(=O)Nc2nc(C(C)(C)C)cs2)c1	19%
CC(=O)c1cccc(NC(=O)CCOc2ccccc2)c1	i
c1ccc(-c2nnn(-c3cnc4ccccc4c3)n2)cc1	i
Clc1ccc(OCCN2CCc3ccccc3C2)cc1	4%
COC(=O)Cc1ccc(NC(=S)NCCc2c[nH]c3ccccc23)cc1	7%
CCCC(=O)c1cc2c(cc1[N+](=O)[O-])OCCO2	i
COC(=O)c1ccc(-n2c(C)cc(C=O)c2C)c(C)c1	1%
CCc1ccc(S(=O)(=O)N2CCN(C(=S)Nc3cc(OC)ccc3OC)CC2)cc1	i
CSc1ccccc1NS(=O)(=O)c1cccc([N+](=O)[O-])c1	i
COc1cc(CNCC2CCCO2)ccc1OCc1ccccc1 (stereo not given)	i
CCOc1ccc(S(=O)(=O)Nc2ccc(O)c(C(=O)O)c2)cc1	i
COC(=O)c1cc(C(=O)Nc2nnc(Cc3ccc(OC)cc3)s2)cc([N+](=O)[O-])c1	i
O=C(NC(=S)Nc1ccccc1C(=O)O)c1cccc(Br)c1	1%
COC(=O)c1ccc(Oc2ccc(OC(C)=O)cc2)cc1	i

# (more compounds)
Compound	Mtb H37Rv
Cc1ccccc1NC(=S)NC1c2ccccc2Oc2ccccc21	i
CC(=O)NCCc1nc2cc(NC(=O)COc3ccccc3)ccc2n1C	i
C=CCNCCOc1cc(C)cc(C(C)C)c1	i
Cc1ccccc1NC(=O)COc1ccc(N2CC(C(N)=O)CC2=O)cc1 (stereo not given)	i
CC(C)(C)OC(=O)NNC(=S)Nc1ccc(Br)cc1Cl	i
O=C(CSCc1ccc(Cl)cc1)NC1CCCCCC1	i
CC(=O)C(C)n1c(=O)oc2ccc(Cl)cc21 (stereo not given)	0%

# 2 entries picked at random from those above, as already listed:
Compound	Mtb H37Rv
COc1ccc(CN2C(=O)c3oc4cc(C)c(C)cc4c(=O)c3C2c2ccc([N+](=O)[O-])cc2)cc1 (stereo not given)	i
O=C(Nc1ccc(Cl)cc1)C1CCCCC1	5%
